miR-21 reporter = qHTS Assay for Modulators of miRNAs and/orActivators of miR-21 | HeLa miR-21 FLuc reporter, luciferase, 48 h | Potency, µM (titrated, usually from 38.3 µM), inactives show top-dose reporter change, positive = more light | 340,000 tested, under 10 active; active = well fitted rising curve with a large enough effect; inconclusive = small, poorly fitted or top-dose-only effect; inactive = no such curve, though single readings can be large or run the other way;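 also: % of control where 0% means no effect; miR-21 action dims this reporter so a rising signal means less miR-21 action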
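Compounds were titrated across several concentrations (up to approximately 40 uM) and incubated 48 hours with HeLa miR-21-FLuc reporter cells (miR-21 target sequence downstream of FLuc, endogenous miR-21). Readout was firefly luciferase luminescence after lytic detection reagent.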
Rango dissoc inh = qHTS Assay for Inhibitors of RanGTP induced Rango (Ran-regulated importin-beta cargo) - Importin beta complex dissociation. Biochemical FRET Rango-importin beta, RanGTP-induced dissociation. AID 540253, 2011. actives 0.071% (n = 340,000). Potency, µM (series often up to 46.1 µM), for inactives: top-dose activity change, negative = inhibition; active means falling FRET ratio curve, often poorly fitted, with flat reads before Ran was added; inconclusive means other falling curves, or compound fluorescence or quenching; inactive means flat or rising ratio curve;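 also: potency is read from the fitted curve at half-maximal effect; % of control where 0% means no effect; nearly all actives have a fitted effect of over 45% in size; -100% = wells without RanGTP and RCC1; the record marks most hits as doubtful in a second field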
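FRET read at 45 min, room temperature: inhibitors block the CFP/YFP signal rise when RanGTP (0.6 uM Ran, 2 mM GTP, 0.2 uM RCC1) frees Rango (0.1 uM) from importin beta (0.25 uM). Pre-read after 5 min compound exposure flags interference.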
Rango-impB inh = qHTS Assay for Inhibitors of Rango (Ran-regulated importin-beta cargo) - Importin beta complex formation. Importin subunit beta-1 (Homo sapiens), Q14974. Rango CFP/YFP FRET sensor + importin beta, 45 min. Potency, µM (top dose mostly 92.2 µM), for the others: at the highest dose inhibition of complex formation. actives 0.031% (n = 340,000). AID 540263, 2011; active = rising FRET ratio curve, often small or poorly fitted; inconclusive = mostly compound fluorescence or quenching in the first reads; inactive = flat curves in all reads;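 also: potency is read from the fitted curve at half-maximal effect; 0% = DMSO wells and 100% = buffer wells lacking importin beta; nearly all actives have a fitted effect of over 15% in size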
Target sequence (Q14974 whole entry, looked up): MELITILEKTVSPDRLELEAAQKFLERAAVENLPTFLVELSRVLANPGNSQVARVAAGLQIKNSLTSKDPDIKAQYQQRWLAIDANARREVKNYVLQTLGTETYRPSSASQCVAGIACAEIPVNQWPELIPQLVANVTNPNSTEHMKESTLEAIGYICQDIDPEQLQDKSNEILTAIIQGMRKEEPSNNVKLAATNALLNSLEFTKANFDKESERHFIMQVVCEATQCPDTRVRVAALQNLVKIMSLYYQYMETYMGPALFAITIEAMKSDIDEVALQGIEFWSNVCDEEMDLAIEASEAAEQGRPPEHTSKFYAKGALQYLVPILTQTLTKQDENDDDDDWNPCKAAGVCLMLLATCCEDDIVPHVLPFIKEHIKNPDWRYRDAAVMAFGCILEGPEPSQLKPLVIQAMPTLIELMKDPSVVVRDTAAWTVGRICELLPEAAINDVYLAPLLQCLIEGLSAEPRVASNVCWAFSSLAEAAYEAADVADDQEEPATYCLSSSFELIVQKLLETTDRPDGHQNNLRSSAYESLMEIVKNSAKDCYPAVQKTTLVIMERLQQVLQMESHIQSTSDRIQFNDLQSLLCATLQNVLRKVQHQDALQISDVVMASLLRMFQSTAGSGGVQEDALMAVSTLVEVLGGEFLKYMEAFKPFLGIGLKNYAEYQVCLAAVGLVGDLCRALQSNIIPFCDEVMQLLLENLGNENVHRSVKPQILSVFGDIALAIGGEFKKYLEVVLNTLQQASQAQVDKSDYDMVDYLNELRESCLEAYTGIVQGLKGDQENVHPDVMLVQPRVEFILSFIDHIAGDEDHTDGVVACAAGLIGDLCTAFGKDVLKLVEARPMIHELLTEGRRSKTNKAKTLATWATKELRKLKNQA
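FRET biosensor (snurportin 1 IBB flanked by EYFP and cerulean), 50 nM, with compound 5 min, then 0.125 microM importin beta in PBS, 1 mM DTT, 0.02% Tween-20, 0.1% BSA. CFP/YFP ratio read after 45 min at room temperature; pre-read flags interference.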
GLA inh pH 4.5 = qHTS Assay for Inhibitors of Human alpha-Galactosidase at pH 4.5; Alpha-galactosidase A (Homo sapiens), P06280; purified enzyme, 4-MU-alpha-Gal fluorescence, pH 4.5; AID 1467, 2008; activity change, negative = inhibition, % at 105 µM; 230,000 tested, under 10 active; inconclusive = small, poorly fitted or top-dose-only inhibition, or a rising curve; inactive = flat fitted curve, though single readings scatter; no compound was filed as active;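 also: 0% = full activity with enzyme and -100% = basal without enzyme; dose as in the result columns while the protocol names 77 µM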
Numbers without * were called inactive; u = inconclusive; x = no result given; & = joins results of further samples; [ ] = another dose, or the depositor's remark. Not all compounds are listed; rates above refer to the full screens.

miR-21 reporter	GLA inh pH 4.5	Rango dissoc inh	Rango-impB inh	Molecule
8.9%	x	-12.4%	-2.2%	Cc1ccc(S(=O)(=O)NCC(C)n2nc(C)nc2C)cc1 (stereo not given)
x	x	1.7%	-0.2%	Cc1ccccc1NC(=O)CSc1nnc(CNC(=O)c2ccco2)n1C
-16.3%	x	8.8%	1.9%	Cc1csc(NC(=O)CSC2=NCCS2)n1
-10.9%	5.1[21.1 µM]	0.3%	-0.7%	O=C(NN=C1CCCC1)c1sc2ccccc2c1Cl
-7.5%	-8.3	0.6%	-0.1%	CC(C)(CSc1ccccn1)NS(=O)(=O)c1ccc(Cl)cc1
24.5%	-3.8	-0.2%	1.5%	CC(C)C(=O)Nc1ccc(-c2nc3ccccc3c(=O)o2)cc1
-13.3%	5.2	0.9%	1.0%	COc1ccc(C(CC(=O)Nc2ccc(F)cc2)c2ccccc2)cc1 (stereo not given)
12.7%	-13.8	11.5%	1.9%	Cc1ccc(NCc2nnc(SCC(=O)N(Cc3ccccc3)C(C)(C)C)o2)c(C)c1
-11.3%	1.0	2.7%	0.3%	Cc1cc(C)cc(NC(=O)C(=O)NCc2ccccn2)c1
-14.4%	-0.6	1.0%	-1.7%	COc1cccc2cc(C(=O)NCc3ccccn3)c(=O)oc12
-1.6%	-1.5	1.3%	-1.8%	CCCn1c(CC)nc([N+](=O)[O-])c1Sc1ccc(F)cc1
2.1%	-2.0	2.4%	0.7%	O=C(Nc1ccc(S(=O)(=O)N2CCc3ccccc3C2)cc1)c1ccccc1

2 of the compounds above, with two lines to a compound.
Each structure is followed by: miR-21 reporter | GLA inh pH 4.5 | Rango dissoc inh | Rango-impB inh
> Cc1ccc(NCc2nnc(SCC(=O)N(Cc3ccccc3)C(C)(C)C)o2)c(C)c1
→ 12.7% | -13.8 | 11.5% | 1.9%
> Cc1cc(C)cc(NC(=O)C(=O)NCc2ccccn2)c1
→ -11.3% | 1.0 | 2.7% | 0.3%

Carrying on.
miR-21 reporter	GLA inh pH 4.5	Rango dissoc inh	Rango-impB inh	Molecule
-1.5%	u	-6.7%	2.6%	COc1cc2c(cc1OC)C(C)N(C(=O)c1cc3c(s1)-c1ccccc1OC3)CC2 (stereo not given)
-41.3%	x	-9.1%	-0.8%	CN(C)CCNC(=O)c1[nH]nc2c1CCc1ccccc1-2
2.0%	x	-7.6%	-2.3%	CCCNc1c(NS(=O)(=O)c2ccc(Br)cc2)c(=O)oc2ccccc12
-0.2%	x	6.4%	2.8%	Cc1ccc(S(=O)(=O)NCCC(=O)Nc2cc(F)ccc2C)cc1C
4.4%	4.0	-5.3%	-3.2%	CC1CC(=O)N(c2ccc(Br)cc2)C(=O)C1
-12.8%	2.4	-2.4%	-1.0%	COC(=O)c1c(NC(=O)C2CCCO2)sc2c1CCC2 (stereo not given)
-19.7%	6.0	1.5%	3.0%	CC(C)c1nnc(NC(=O)CSc2nnc(-c3ccco3)o2)s1
-0.9%	x	6.9%	-0.9%	COc1ccccc1C(=O)NCCC(=O)NCC(C)(C)N1CCOCC1
x	x	-9.0%	0.0%	COc1cc(/C=C/C(=O)O)cc(S(=O)(=O)Nc2cc(C(F)(F)F)ccc2N2CCOCC2)c1OC
x	x	-12.2%	3.5%	COc1ccc(S(=O)(=O)N2CCOCC2)cc1NC(=O)CSc1nnc(C2CC2)n1C1CC1
3.5%	-1.6	-1.7%	-4.3%	CC(=O)Nc1nnc(SCC(=O)NCC2CCCO2)s1 (stereo not given)
-2.1%	-9.0	-8.0%	0.3%	COc1ccc(CNC(=O)CSc2n[nH]c(C)c2[N+](=O)[O-])cc1
x	x	-10.4%	u	O=C(COc1ccccc1[N+](=O)[O-])Nc1ccc2c(c1)CCC2
6.4%	x	-13.1%	u	Cc1cc(C)cc(N2CC(C(=O)NC3CCCCC3)CC2=O)c1 (stereo not given)
x	x	6.1%	-2.7%	CSc1nc2nc(C)c(CCC(=O)OCC(=O)Nc3ccc(F)cc3)c(C)n2n1
x	x	0.3%	-0.3%	O=C(O)C[C@H]1c2ccccc2S(=O)(=O)N1C1CCCCC1
0.1%	x	-0.4%	0.3%	C[C@@H]1CCC(=O)N(C[C@@H](C)CC#N)CC1
-72.6%	-5.6	7.2%	-0.7%	CC(=O)Nc1ccc(/C=N/Nc2nc3ccccc3s2)cc1
-4.2%	x	-9.2%	3.1%	Cc1ccsc1CNC1CCCCC1
x	x	9.4%	4.8%	Cc1cccc(C)c1Nc1nnc(SCC(=O)NCCCN2CCCC2=O)s1
0.5%	x	-7.9%	u	O=C(Nc1ccncc1)Nc1cccc(Cl)c1
x	-2.5&1.6&-12.3	5.7%	1.7%	C/C(=C\c1ccc(C(=O)O)cc1)c1ccc2c(c1)C(C)(C)CCC2(C)C
-2.2%	x	-1.3%	-1.3%	Cc1ccc(CSc2nc3ccccc3c(=O)n2C)cc1
-7.9%	-9.7	23.8%	1.4%	COc1ccc(OC)c(NC(=O)c2cccc(S(=O)(=O)N(Cc3ccccc3)c3ccccc3OC)c2)c1
-2.7%	8.4	-8.2%	0.2%	COc1ccc(-c2nc3n(c(=O)c2C#N)CCS3)cc1OC
-3.0%	-2.5	-15.5%	-3.1%	CC(C)C(c1nnnn1C1CCCC1)N(C)C1CCCCC1 (stereo not given)
-0.1%	-1.2	u	0.1%	Nc1nc(CN2CCC(Cc3ccccc3)CC2)nc(Nc2ccccc2)n1
-11.1%	9.0	-4.6%	1.5%	CSc1ccccc1C(=O)NCc1ccccc1
-15.6%	1.1	7.2%	-0.3%	Cc1cccc(NC(=O)CC2CCC2)c1
0.3%	8.0	21.0%	7.1%	O=C(Nc1ncn[nH]1)c1ccc(S(=O)(=O)N2CCOCC2)cc1
-35.2%	-0.4	8.7%	-2.1%	O=C(NCc1ccco1)c1cc(-c2ccco2)on1
28.2%	1.9	-0.2%	-0.7%	c1ccc(C(c2nnnn2Cc2ccco2)N2CCN(c3nc4ccccc4s3)CC2)cc1 (stereo not given)
x	x	8.9%	0.3%	COc1ccc(NC(=O)N(C)C[C@H]2Oc3ccc(NS(=O)(=O)c4cn(C)cn4)cc3C(=O)N([C@H](C)CO)C[C@@H]2C)cc1
-1.6%	0.8	5.0%	8.3%	COc1ccccc1N(CC(=O)N/N=C/c1ccccc1C(=O)O)S(C)(=O)=O
-9.7%	-6.2	15.2%	-4.1%	Cc1ccccc1OCCCCCNCCO
x	x	-5.8%	0.3%	C[C@H]1NS(=O)(=O)c2ccc(Br)cc2O[C@H]1c1ccccc1
0.5%	x	-0.1%	1.1%	CCOc1ccc(N=C2SCCCN2C(=O)c2c(CC)noc2C)cc1
1.9%	-4.4	8.5%	0.8%	O=[N+]([O-])c1ccc(-n2nnnc2-c2ccccc2)cc1
x	x	-6.7%	u	CCC1Nc2ncnc(N3CCN(c4ccccc4)CC3)c2N(Cc2ccc(OC)cc2)C1=O (stereo not given)
0.0%	5.3	-0.6%	1.0%	Cc1nnc(SCc2cn3ccsc3n2)n(N)c1=O
-7.5%	x	3.0%	-1.3%	O=C(COc1ccc(Br)cc1Cl)NCCCN1CCOCC1
-2.4%	-4.1	3.9%	-4.4%	COc1cc(C2NC(=O)NC(O)(C(F)(F)F)C2C(=O)c2ccc(Cl)cc2)ccc1O (stereo not given)
-2.1%	-11.1	4.6%	4.8%	O=C(CN(Cc1ccccc1Cl)C(=O)Cn1nnc(-c2cccs2)n1)NCC1CCCO1 (stereo not given)
-1.9%	1.8	u	-2.4%	COC(=O)C1(NC(=O)NC23CC4CC(CC(C4)C2)C3)CCCCC1
-22.9%	7.4	8.2%	-0.1%	Cc1cc(=O)oc2ccc(OCC(=O)N3CCC(C)CC3)cc12
-4.4%	-0.4	-3.6%	2.9%	COc1ccc(C(=O)OCC(N)=O)cc1[N+](=O)[O-]
x	-11.8	17.9%	0.0%	COc1cc2oc(=O)cc(-c3ccc(-c4ccc(O)cc4)cc3)c2c(OC)c1OC
-6.2%	-0.2	-4.4%	-1.3%	COC(=O)c1c(CSc2ccc(C)c(C)c2)noc1C(=O)NCc1ccc(OC)cc1

Sorted by heavy-atom count (ascending): 13 of the compounds above.
miR-21 reporter	GLA inh pH 4.5	Rango dissoc inh	Rango-impB inh	Molecule
0.1%	x	-0.4%	0.3%	C[C@@H]1CCC(=O)N(C[C@@H](C)CC#N)CC1
-35.2%	-0.4	8.7%	-2.1%	O=C(NCc1ccco1)c1cc(-c2ccco2)on1
3.5%	-1.6	-1.7%	-4.3%	CC(=O)Nc1nnc(SCC(=O)NCC2CCCO2)s1 (stereo not given)
x	x	0.3%	-0.3%	O=C(O)C[C@H]1c2ccccc2S(=O)(=O)N1C1CCCCC1
-2.7%	8.4	-8.2%	0.2%	COc1ccc(-c2nc3n(c(=O)c2C#N)CCS3)cc1OC
-14.4%	-0.6	1.0%	-1.7%	COc1cccc2cc(C(=O)NCc3ccccn3)c(=O)oc12
2.0%	x	-7.6%	-2.3%	CCCNc1c(NS(=O)(=O)c2ccc(Br)cc2)c(=O)oc2ccccc12
x	x	1.7%	-0.2%	Cc1ccccc1NC(=O)CSc1nnc(CNC(=O)c2ccco2)n1C
-1.6%	0.8	5.0%	8.3%	COc1ccccc1N(CC(=O)N/N=C/c1ccccc1C(=O)O)S(C)(=O)=O
-2.4%	-4.1	3.9%	-4.4%	COc1cc(C2NC(=O)NC(O)(C(F)(F)F)C2C(=O)c2ccc(Cl)cc2)ccc1O (stereo not given)
12.7%	-13.8	11.5%	1.9%	Cc1ccc(NCc2nnc(SCC(=O)N(Cc3ccccc3)C(C)(C)C)o2)c(C)c1
x	x	-12.2%	3.5%	COc1ccc(S(=O)(=O)N2CCOCC2)cc1NC(=O)CSc1nnc(C2CC2)n1C1CC1
-7.9%	-9.7	23.8%	1.4%	COc1ccc(OC)c(NC(=O)c2cccc(S(=O)(=O)N(Cc3ccccc3)c3ccccc3OC)c2)c1

The list goes on.
miR-21 reporter	GLA inh pH 4.5	Rango dissoc inh	Rango-impB inh	Molecule
x	x	-18.1%	-1.8%	O=C(COC(=O)c1ccc(Cl)c(S(=O)(=O)NCc2ccccc2)c1)NC1CC1
-3.9%	-2.1	-7.9%	1.9%	CC(=O)C1=C(C)NC(SCC(N)=O)=C(C#N)C1CC(C)C (stereo not given)
2.8%	2.7	-1.3%	1.0%	CCCCNC(=O)C1CC(=O)N(C2CCCC2)C1 (stereo not given)
5.1%	0.5	23.3%	-1.6%	Cc1cc(=O)c2ccccc2n1Cc1ccccc1
22.4%	x	-8.5%	-4.5%	COc1ccc(C(=O)NCCCNC(=O)c2cccnc2)cc1Br
-10.3%	x	-5.7%	3.2%	O=C(COc1ccc(Cl)cc1Cl)NCCCNC(=O)c1cnccn1
2.2%	x	2.0%	-0.8%	Cc1onc(-c2ccccc2)c1C(=O)NC(C)c1ccc2c(c1)OCO2 (stereo not given)
-0.2%	x	8.9%	-1.2%	O=C(CNC(=O)N1CC(=O)Nc2ccccc21)NCc1cccc(Cl)c1
-0.6%[7.66 µM]	-5.3	-17.8%	3.4%	Cc1cccc(Nc2nc(N)nc(CN3CCC(C)CC3)n2)c1C
-18.7%	x	2.6%	1.7%	COc1cccc(OCc2cc(C(=O)NCCc3cccc(C)n3)no2)c1
x	x	7.8%	-0.2%	Cc1ccccc1NC(=O)Cc1nc(COC(=O)c2ccc(Cl)nc2)cs1
25.4%	-2.5	6.2%	0.8%	O=C1CC(N(CCc2ccccc2)C(=S)Nc2ccccc2)C(=O)N1c1ccccc1 (stereo not given)
-6.8%	x	-6.0%	-1.2%	COc1ccc(CN2CCC(=O)N([C@H](CO)c3ccccc3)CC2)cc1OC
-21.6%	x	-16.6%	1.4%	O=C(CCc1ccccc1)Nc1ccccc1C(F)(F)F
-59.3%	-7.3	8.7%	0.7%	CCc1cc2c(=O)n(-c3ccc(C)cc3)cnc2s1
-1.5%	x	7.8%	5.3%	COc1cccc(C(=O)N/N=c2/oc3ccccc3cc2C(N)=O)c1

Screens from PubChem.
